CBX7 inh: blocks human CBX7 binding to H3K27me3 peptide; 66,000 compounds, 1.1% hits; AlphaScreen His6-CBX7 / biotin-H3K27me3 peptide binding; active compounds read low; O95931; normalised signal (fraction of DMSO) (no concentration beside the values); in the data active means normalised signal below about 0.5;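 further: 100 nL library stock added to about 20 µL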
Target sequence (O95931 whole entry, looked up): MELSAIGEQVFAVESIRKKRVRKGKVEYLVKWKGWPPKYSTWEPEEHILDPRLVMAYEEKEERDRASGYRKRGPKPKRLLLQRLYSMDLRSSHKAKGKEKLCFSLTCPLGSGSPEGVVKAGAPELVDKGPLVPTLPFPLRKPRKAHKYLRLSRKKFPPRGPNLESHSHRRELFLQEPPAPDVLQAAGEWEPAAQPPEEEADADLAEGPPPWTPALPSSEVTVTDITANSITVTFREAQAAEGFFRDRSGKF
CBX7 inh z-score: also measured in CBX7 inh; calls as there; z-score; measured here: z-score of CBX7 signal; some inactives read as strong as hits; reference of the scale not given here;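 same signal on another scale; lower means less binding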
An asterisk follows results filed as active. These rows are one share of the data; rates above refer to the full screens.

The first 6 records as a preview:
SMILES	CBX7 inh z-score	CBX7 inh
Cc1cc(N2C(=O)Cn3cccc3C2C(=O)NC2CCCC2)ccc1Br (configuration not stated)	1.4	1.2
COc1ccc(Nc2nc(-c3cccs3)cs2)cc1	-4.1	0.75
Nc1ccc2oc(-c3ccccc3Br)nc2c1	-1.2	0.95
COc1ccc(-c2cc(C(F)(F)F)n3nc(C(=O)Nc4ccc(C)c(C)c4)c(Cl)c3n2)cc1OC	-0.29	0.98
Cc1cccc2c1-c1sc(C(=O)NCCN3CCN(C)CC3)cc1CO2	4.9	1.2
CCOC(=O)C1CCCN(c2c(N3CCC(C(N)=O)CC3)c(=O)c2=O)C1 (configuration not stated)	4.6	1.2

Results, previewed entries included:
SMILES	CBX7 inh z-score	CBX7 inh
Cc1cc(N2C(=O)Cn3cccc3C2C(=O)NC2CCCC2)ccc1Br (configuration not stated)	1.4	1.2
COc1ccc(Nc2nc(-c3cccs3)cs2)cc1	-4.1	0.75
Nc1ccc2oc(-c3ccccc3Br)nc2c1	-1.2	0.95
COc1ccc(-c2cc(C(F)(F)F)n3nc(C(=O)Nc4ccc(C)c(C)c4)c(Cl)c3n2)cc1OC	-0.29	0.98
Cc1cccc2c1-c1sc(C(=O)NCCN3CCN(C)CC3)cc1CO2	4.9	1.2
CCOC(=O)C1CCCN(c2c(N3CCC(C(N)=O)CC3)c(=O)c2=O)C1 (configuration not stated)	4.6	1.2
COc1cc(/C=C/c2cc(C(F)(F)F)[nH]c(=O)n2)ccc1OCc1ccc(Cl)cc1Cl	-16*	0.26*
CCc1cc(C)cc(OCCOc2ccc(-c3nc4sc5c(c4c(=O)[nH]3)CCCC5)cc2)c1	2	1.1
COc1ccc(NC(=O)[C@H](CCSC)N2Cc3ccccc3C2=O)cc1Cl	-0.38	0.86
CCC(=O)N1CCc2cc(S(=O)(=O)CCC(=O)NC3CCCCC3)ccc21	-0.24	0.99
CCC(=O)N1CCc2cc(Br)cc(S(=O)(=O)NCc3ccc(C)cc3)c21	-0.96	0.98
O=C(NCc1ccc(F)cc1)c1cc2c(s1)CN(Cc1ccccc1)C2	-0.5	0.96
Cc1ccccc1-c1nc2cc(NC(=O)c3cccc(OCCC(C)C)c3)ccc2o1	2.2	1.1
COc1ccccc1CNC(=O)CCCNS(=O)(=O)c1ccc2c(c1)CCC(=O)N2	-0.57	0.98
COc1cc(OC)c(Nc2nc3ccccc3nc2-n2nc(C)cc2C)cc1Cl	9.6	1.4
COc1ccc(NC(=O)c2nccnc2C(=O)O)cc1Cl	-4.5	0.65
COc1ccc(-c2cc(C(=O)NCc3cccnc3)c3cc(Br)ccc3n2)cc1	-0.0055	1
Cc1oc(-c2ccccc2Cl)nc1CS(=O)(=O)CC(=O)NCCN1CCOCC1	0.019	1
COc1ccc(OCC(=O)Nc2cc(-c3nc4cc(C(C)C)ccc4o3)ccc2Cl)cc1	1.3	1.4
CCN1CCN(c2cc(=O)n(-c3ccc(Cl)cc3)c(=O)[nH]2)CC1	-0.53	0.94
CCCOc1ccc(-c2cc(C(=O)O)c3ccccc3n2)cc1	-2.5	0.77
c1ccc(-c2nc(N3CCCCC3)nc3ccccc23)cc1	35	1.9
O=C1CCCc2c1cc(C(=O)Nc1ccccc1Br)c(=O)n2-c1ccccc1	-0.31	0.93
COc1ccc(Cl)cc1NC(=O)c1cc2c(C)nn(-c3ccccc3)c2s1	0.056	1.1
COc1ccc(C)cc1Nc1nc(C)cc(C)c1C#N	2	1
CCC(=O)N1CCN(c2nc(Cc3ccccc3)c3c(c2C#N)CC(C)(C)OC3)CC1	-0.79	0.93
CCCOc1ccc(C2C(=O)N(C3CCC(C)CC3)CC(=O)N2Cc2cccc(OC)c2)cc1OC (configuration not stated)	-0.23	0.81
Cc1ccc(S(=O)(=O)c2nc(-c3ccccc3Cl)oc2N2CCOCC2)cc1	-1	0.76
CCn1cc(C(=O)NCc2cccs2)c(=O)c2ccc(C)nc21	1.1	1.1
CCOc1cc2c(cc1OCC)C(c1ccccc1Cl)NCC2 (configuration not stated)	-1.5	0.95

The closing 6 compounds of the section before come first, to join the parts.
SMILES	CBX7 inh z-score	CBX7 inh
COc1ccc(C)cc1Nc1nc(C)cc(C)c1C#N	2	1
CCC(=O)N1CCN(c2nc(Cc3ccccc3)c3c(c2C#N)CC(C)(C)OC3)CC1	-0.79	0.93
CCCOc1ccc(C2C(=O)N(C3CCC(C)CC3)CC(=O)N2Cc2cccc(OC)c2)cc1OC (configuration not stated)	-0.23	0.81
Cc1ccc(S(=O)(=O)c2nc(-c3ccccc3Cl)oc2N2CCOCC2)cc1	-1	0.76
CCn1cc(C(=O)NCc2cccs2)c(=O)c2ccc(C)nc21	1.1	1.1
CCOc1cc2c(cc1OCC)C(c1ccccc1Cl)NCC2 (configuration not stated)	-1.5	0.95
CCc1ccc(CNC(=O)CCn2nc(-c3ccc(C)cc3)ccc2=O)cc1	0.34	1
Cc1oc(-c2ccccc2F)nc1CN1CCC(C(=O)NCc2ccc(F)cc2)CC1	-1.2	0.95
COc1ccc(N2C(=O)CCC(C(=O)NCc3ccc(F)cc3)C2c2ccc(F)cc2)cc1 (configuration not stated)	2.1	1.1
O=c1[nH]c(-c2ccccc2)cn1-c1ccc(Br)cc1	-0.83	0.97
CC(C)CCN(C)C1CCN(C(=O)Nc2ccc(Cl)cc2)CC1	0.8	1
CCOc1ccccc1Nc1nc(-c2ccncc2)cs1	-0.85	0.93
CCC1=Nc2cc(C(=O)NC(C)c3ccccc3)ccc2Sc2ccc(C)cc21 (configuration not stated)	-2	0.86
Cc1cccc(OCC(=O)NCc2cc(-c3nn(C)c(=O)c4ccccc34)ccc2C)c1	1.6	1.1
Cc1cccn2c(NC(=O)c3ccc(F)cc3)c(-c3ccccc3)nc12	-0.41	0.99
COc1ccccc1CNC(=O)C1c2ccccc2C(=O)N2CCc3cc(OC)c(OC)cc3C12 (configuration not stated)	0.15	1
CCOC(=O)c1ccc(NC2c3ccccc3C(=O)N2c2ccc(Cl)cn2)cc1 (configuration not stated)	0.34	1
COc1ccc(NC(=O)CCCC2=NS(=O)(=O)c3ccccc3N2)cc1	1.2	1.1
CCCCN1C(=O)CC1(C(=O)NC1CCCCC1)c1ccc(Cl)cc1 (configuration not stated)	0.36	1
Cc1ccc(Nc2cc(C)nc3cc(Cl)ccc23)cc1	-0.13	0.89
CC1CCN(C(C(=O)NC2CCCC2)c2ccc(Cl)cc2)CC1 (configuration not stated)	-0.79	0.98
CCCCN(C)C(=O)c1ccc2c(c1)N(Cc1ccccc1F)C(=O)c1ccccc1S2=O (configuration not stated)	1.9	1.1
COc1ccc(NC(=O)CSc2nc(-c3ccccc3)[nH]c2-c2ccc(OC)cc2)cc1	-8.6	0.82
CCOc1ccc(Nc2nnc(C(C)(C)C)c(=O)[nH]2)cc1	1.2	1
COc1cc2c(cc1OC)C(c1ccc(C#N)cc1)NCC2 (configuration not stated)	0.4	1
Cc1ccc(S(=O)(=O)C2(C(=O)Nc3c(C)cccc3C)CC2)cc1	1.5	1.1
CCOC(=O)c1sc(NC(=O)COc2ccc(CC)cc2)nc1C	1.9	1.1
O=c1oc2ccc3ccccc3c2cc1-c1nnc(-c2ccc(Br)cc2)o1	-0.77	0.93
COc1ccc(CNC(=O)c2cnn3c(C)c(Cc4ccc(C)cc4)c(C)nc23)cc1	4.1	1.1
CCCN(CCC)CCCNC(=O)Cc1c(C(=O)O)[nH]c2ccc(Cl)cc12	1.1	1
CCCCNC(=O)c1cc(=O)[nH]c2ccc(S(=O)(=O)N3CCOCC3)cc12	-1.1	0.9
Fc1cccc(-c2nc3ccc(Cl)cc3nc2-c2cccc(F)c2)c1	1.8	1.3
O=C(Nc1ccc2oc(-c3ccc(F)cc3Cl)nc2c1)c1cccc2ccccc12	-0.62	0.98
Cc1ccccc1NC(=O)CC1Sc2ccccc2NC1=O (configuration not stated)	2.1	1.1
CCOc1ccc(-n2c(C)nc3c(cnn3-c3ccc(Cl)cc3)c2=O)cc1	-2.8	0.82
Cc1ccc(CNC(=O)C2CCCN(C(=O)N(C)C)C2)cc1 (configuration not stated)	1.5	1.1
CC1=C(C(=O)Nc2cccc(C)n2)C(c2ccccc2Cl)C2=C(CC(C)(C)CC2=O)N1 (configuration not stated)	0.22	1.1
c1cn2c(NC3CCCC3)c(-c3ccsc3)nc2cn1	2.4	1.2
CS(=O)(=O)N1CCCC(C(=O)NCCCN2CCC(Cc3ccccc3)CC2)C1 (configuration not stated)	0.56	1
COc1ccc(-c2nc(CN3CCCC(C(=O)NCc4ccc(Cl)cc4)C3)c(C)o2)cc1 (configuration not stated)	-0.055	0.96
CCOc1ccccc1C1CC(c2cccs2)Nc2ncnn21 (configuration not stated)	-0.45	0.98
Cc1ccc(N(CC(=O)NC2CCCCC2)S(=O)(=O)c2cccnc2)cc1	1.5	1.2
Cc1nnc(NC(=O)c2cccc(S(=O)(=O)N3CCCCCC3)c2)s1	-0.13	0.99
CCC(C)Sc1oc(-c2ccccc2)nc1S(=O)(=O)c1ccc(C)cc1 (configuration not stated)	6.3	1.2
CCc1ccc(NC(=O)Cn2cnc3scc(-c4ccccc4)c3c2=O)cc1	-3.4	0.8
Cc1ccc(S(=O)(=O)N(CC(O)CN2C(=O)NC(C)(C)C2=O)c2cc(Cl)ccc2Cl)cc1 (configuration not stated)	-0.23	0.96
C=CCN1C(=O)c2ccccc2Sc2ccc(C(=O)NCCc3ccccc3)cc21	-0.071	0.93
Cc1ccc(-n2c(=O)cc(N3CC(C)CC(C)C3)[nH]c2=O)cc1 (configuration not stated)	0.81	1
CCc1ccc(NS(=O)(=O)c2ccc3c(c2)NC(=O)CC(=O)N3)cc1	3.1	1.1
COc1cccc(-c2nc(CS(=O)(=O)CC(=O)Nc3cccc(Cl)c3C)c(C)o2)c1	0.025	1
CCOC(=O)N1CCc2c(sc(NC(=O)c3ccc(S(=O)(=O)N(C)C)cc3)c2C(=O)OC)C1	3	1.1
Cc1cccc(NC(=O)CCn2nc(-c3ccccc3)c3ccccc3c2=O)c1	-0.67	0.98
CCOC(=O)c1cnc2ccc(C)cc2c1Nc1ccc(OCc2ccccc2Cl)cc1	-2.3	0.78
COc1cccc(C(=O)NCCN=C2NS(=O)(=O)c3ccccc32)c1	0.73	1
COc1ccc(C)cc1-n1cnc2cc(C(=O)NC3CCCC3)ccc21	0.0085	1
COc1ccc(OC)c(CNC(=O)Cn2nc(-c3ccccc3)ccc2=O)c1	-0.31	0.99
COc1ccc(-c2cc(C(F)(F)F)n3ncc(C(=O)NCC4CCCO4)c3n2)cc1 (configuration not stated)	1.2	1
CCN(CC)S(=O)(=O)c1ccc(C(=O)NCCc2cc3ccc(C)c(C)c3[nH]c2=O)cc1	0.73	1
CN1CCN(CCCNC(=O)c2cc3c(-c4ccccc4F)nn(C)c3s2)CC1	-1.2	0.92
CCCCN(CCCC)S(=O)(=O)c1ccc2[nH]c(=O)cc(C(=O)NC(C)c3ccccc3)c2c1 (configuration not stated)	-0.016	1
O=c1c2c(nc(NCCO)n1-c1ccccc1)-c1ccccc1CC21CCCC1	0.81	1.1
COc1ccc(CNC(=O)c2ccc3c(c2)N(C)C(=O)CS3=O)cc1 (configuration not stated)	-0.0038	1
CCOC(=O)CN(C)c1nc(-c2ccccc2)cs1	0.25	1.1
O=C(Nc1ccc(C(=O)N2CCOCC2)cc1)Nc1cccc(Cl)c1	1.1	1
CCN1C(=O)c2ccccc2S(=O)c2ccc(C(=O)NC3CCCc4ccccc43)cc21 (configuration not stated)	-0.42	0.98
COc1ccc(CNc2ccc3c(c2)ncn3C)c(OC)c1	-0.87	0.96

(list continues)
SMILES	CBX7 inh z-score	CBX7 inh
CC(C)NC(=O)c1cc2c(s1)CSC2	2.6	1.2
Cc1cccc(CCNC(=O)CCNS(=O)(=O)c2ccc3c(c2)CCC(=O)N3)c1	2.9	1.2
CCc1cccc(NC(=O)c2cc(C)nn2-c2ccccc2)c1	0.99	1
O=C(Nc1nnc(N2CCCCCC2)s1)c1csc2c1CCCC2	0.31	1
CCCN1CCN(CCCNC(=O)CN2C(=O)C(CC)Oc3ccccc32)CC1 (configuration not stated)	2.1	1.1
CC1CC(C)CN(C(=O)CN(C)S(=O)(=O)c2cccc3cccnc23)C1 (configuration not stated)	2.9	1.1
O=C(CC1Oc2ccccc2NC1=O)NC1CCCCCC1 (configuration not stated)	-1.3	0.93
NC(=O)COc1ccc(-c2noc(COc3ccc(Cl)cc3)n2)cc1	0.71	1.1
Cc1nn(Cc2ccc(F)cc2)c(C)c1NC(=O)c1cc(-c2cccs2)on1	-2.1	0.85
COc1ccc(-c2cc(C(=O)Nc3ccc(F)c(Cl)c3)no2)cc1OC	-0.87	0.94
COc1cc2[nH]c(=O)n(Cc3ccc(C(=O)NCCc4ccccc4)cc3)c(=O)c2cc1OC	2.8	1.1
CCCCCCCOc1ccc(-c2ccc(C#N)cc2)cc1	8.6	1.5
CCOc1ccc(C(=O)Nc2c3c(nn2-c2ccc(F)cc2)CSC3)cc1	1.1	1.1
